# High-throughput results deposited in PubChem BioAssay by National Center for Advancing Translational Sciences (NCATS).
# TRPML1 inh = inhibitors of human TRPML1 channel; Q9GZU1; TRPML1-inducible cells, Ca2+ dye fluorescence, FDSS; hits give low values; inhibition of EC80 agonist-evoked calcium signal; activity change, negative = inhibition, % (no concentration beside the values); 390,000 compounds, 0.02% hits; AID 624415; in the data active means activity change below about -50%; inconclusive means about -30% to -50%; inactive means above about -30%;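 further: stimulus is agonist 54-4 at its EC80 concentration; on the % scale 0 is the no-effect control and ±100 the full control effect; compound concentration not given in the record; the text of the record puts the active cut at -80%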
# Target sequence (Q9GZU1 whole entry, looked up): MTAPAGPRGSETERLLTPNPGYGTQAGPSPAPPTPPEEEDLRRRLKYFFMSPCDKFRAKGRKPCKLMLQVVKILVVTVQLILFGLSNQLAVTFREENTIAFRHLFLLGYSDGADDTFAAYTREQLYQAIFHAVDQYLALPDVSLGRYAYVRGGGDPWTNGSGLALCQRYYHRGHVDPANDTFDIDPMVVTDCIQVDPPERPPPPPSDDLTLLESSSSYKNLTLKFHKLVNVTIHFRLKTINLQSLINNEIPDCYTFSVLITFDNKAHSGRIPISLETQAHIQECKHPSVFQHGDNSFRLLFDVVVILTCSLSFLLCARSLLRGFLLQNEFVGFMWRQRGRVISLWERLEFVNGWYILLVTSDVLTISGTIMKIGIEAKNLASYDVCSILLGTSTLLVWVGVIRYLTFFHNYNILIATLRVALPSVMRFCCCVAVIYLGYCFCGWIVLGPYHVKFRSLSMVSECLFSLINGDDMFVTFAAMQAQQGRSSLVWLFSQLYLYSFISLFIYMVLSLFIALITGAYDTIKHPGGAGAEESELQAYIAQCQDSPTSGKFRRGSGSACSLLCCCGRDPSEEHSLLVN
#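 Tet-induced TRPML1-DL cells loaded with Ca8 no-wash calcium dye were read kinetically on FDSS. Compound addition was followed by EC80 agonist 54-4 (4 uM final); inhibition was read over 110 s.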
# PINK1 modulator = modulators of PINK1 expression; Potency, µM (titrated, usually from 76.6 µM), for the others: at the top dose activation (PINK1 increase), usual class: activators; 410,000 compounds, 0.2% hits; PINK1 immunofluorescence, high-content cytometry, 24 h; active = well fitted activation curve with a large enough effect; inconclusive = small, poorly fitted or top-dose-only effect; inactive = flat fitted curve, though single readings scatter; cell line not stated here;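 further: potency means the concentration at half of the fitted maximal effect; % of control where 0% means no effect; nearly all actives have a fitted effect of over 65% in size; a mitochondrial uncoupler was the plate control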
#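 Compound titrations (5 concentrations, 24 h) on a stable cell line; DMSO and CCCP controls. Endpoint: fixed-cell PINK1 immunofluorescence with mitochondrial, cell and nuclear markers, scanned by microplate cytometer.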
# D2 potentiator = human D2 receptor positive allosteric modulation. P14416. DiscoveRx D2 beta-arrestin cells, luminescence, 90 min; 100% = 57 uM dopamine signal. potentiation, % (test concentration not listed). 360,000 compounds, 0.23% hits. AID 624464; active = potentiation of 50% or more; inconclusive = 30% to 50%; inactive = 30% or less;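 further: compound concentration not given in the record; tested on top of an EC20 dose of dopamine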
# Target sequence (P14416 whole entry, looked up): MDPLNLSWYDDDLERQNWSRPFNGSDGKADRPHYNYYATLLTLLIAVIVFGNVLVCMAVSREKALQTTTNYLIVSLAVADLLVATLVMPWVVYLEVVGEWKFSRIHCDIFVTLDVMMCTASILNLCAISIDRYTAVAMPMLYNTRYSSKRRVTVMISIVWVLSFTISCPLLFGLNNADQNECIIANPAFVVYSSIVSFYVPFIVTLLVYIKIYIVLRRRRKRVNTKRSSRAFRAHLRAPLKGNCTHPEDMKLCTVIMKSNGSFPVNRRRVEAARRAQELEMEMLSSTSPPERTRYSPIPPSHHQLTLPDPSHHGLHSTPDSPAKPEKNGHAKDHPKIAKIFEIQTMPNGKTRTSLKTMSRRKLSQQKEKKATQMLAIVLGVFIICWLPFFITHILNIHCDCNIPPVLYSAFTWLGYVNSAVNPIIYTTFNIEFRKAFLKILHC
#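 D2 cells co-treated with compound plus 50 nM dopamine (EC20) for 90 min at 37 deg C to detect potentiation. Beta-arrestin recruitment was read as enzyme-fragment luminescence after 1 h at ambient temperature. Full response was set by 57 uM dopamine.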
# Six1-Eya2 inh = inhibitors of human Six1/Eya2 interaction | Q15475+O00167 | AlphaScreen GST-Six1/His-Eya2 binding, biochemical; hits give low values; control for the full effect not named in the record | activity change, % (no concentration beside the values) | 360,000 compounds, 0.56% hits | AID 651725; in the data active = activity change below about -65%; inconclusive = about -30% to -65%; inactive = above about -30%; further: on the % scale 0 is the no-effect control and ±100 the full control effect
#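 GST-Six1 + His-Eya2 (5X stock: 250/500 nM); Tris pH 8.0, 300 mM NaCl, 0.05% BSA, 0.02% Tween 20; GSH donor/Ni acceptor beads; 1 h 37 °C dark; AlphaScreen readout.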
# TRPML1 agonist = agonists of human TRPML1 channel | TRPML1-expressing cells, Ca2+ dye fluorescence, FDSS; host cell line not named in the record; reference of the full effect not given here | activation, % (no concentration beside the values) | 410,000 compounds, 0.12% hits | AID 624414; in the data active = activation above about 50%; inconclusive = about 30% to 50%; inactive = below about 30%; further: 0% is about no effect; the text of the record puts the active cut at 80%
#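 Kinetic FDSS Ca2+ read in Tet-induced TRPML1-DL cells (ABD Ca8 dye plus quencher, 45-90 min RT loading): baseline, then compound, then 110 s agonist window; EC80 agonist 54-4 at 4uM final added afterwards for a 110 s antagonist window.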
# D2 agonist = activates the human D2 dopamine receptor; P14416; DiscoveRx PathHunter D2 beta-arrestin, luminescence, 90 min; 100% = 57 uM dopamine signal; activation, % (concentration not given with the values); 360,000 compounds, 0.084% hits; AID 624465; in the data active = activation above about 40%; inconclusive = about 15% to 40%; inactive = below about 15%; further: the text of the record calls up to 30% inactive
#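 DiscoveRx PathHunter D2 beta-arrestin cells (2,100/well) attached overnight, then compound-stimulated 90 min at 37 C in HBSS/10 mM HEPES/0.1% Tween-20 buffer; beta-galactosidase complementation read by luminescence after 1 h at ambient temperature. Dopamine 57 uM final (EC100) as control.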
# * marks the source's active call; other numbers are inactive results; u = inconclusive; x = no result given; & = joins results of further samples; [ ] = another dose, or the depositor's remark. Not a hit list (roughly 1% active in at least one column).
Molecule,TRPML1 inh,PINK1 modulator,D2 potentiator,Six1-Eya2 inh,TRPML1 agonist,D2 agonist
COc1ccc(S(=O)(=O)N2CCOCC2)cc1C(=O)NCC(c1ccccc1)c1ccccc1,9,-1.6%,-12,-10,1.3,-0.1
CCOc1ccc(OCCSc2nnnn2-c2ccccc2)cc1,9,-0.5%,-10,25,-0.3,-2.2
CCS(=O)(=O)Nc1cc2c3c(c1)CCC(=O)N3CCC2,-4,3.0%,-3,-9,0.4,3.1
O=C(Cc1ccc(Cl)cc1)Nc1cc(S(=O)(=O)N2CCOCC2)ccc1N1CCCC1,-11,-0.2%,-3,0,-0.3,-1.6
CC(C)C(NC(=O)/C=C/c1cccc([N+](=O)[O-])c1)C(C)C,5,0.2%,-13,2,3.4,0.1
O=C(Nc1nc2ccc(F)cc2s1)c1ccc(N2CCCC2=O)cc1,15,2.9%,-11,-2,-0.6,-0.7
Cc1ccc(S(=O)(=O)N2C[C@H]3[C@H]4C(=O)N(C5CCCCC5)C(=O)[C@H]4CC(=O)[C@H]3[C@@H]2c2cccc3ccccc23)cc1,x,-0.6%,5,-2,-0.4,1.9
O=C1CCN(CCCN2CCC(=O)N(Cc3ccccc3)C2=S)C(=S)N1Cc1ccccc1,5,0.2%,4,-1,-0.5,-1.8
COc1cc(NC(C)CCCN)c2ncccc2c1Oc1ccccc1 (stereo unspecified),-7,3.4%,-1,1,0.2,3.3
Cc1[nH]n(-c2ccccc2)c(=O)c1C1(C(F)(F)F)C(=O)N(c2ccc(F)cc2)C2=C1C(=O)CC(C)(C)C2 (stereo unspecified),-5,-0.6%,-15,-3,-0.7,1.5

# An excerpt from above in order of their number in Six1-Eya2 inh, descending:
compound | Six1-Eya2 inh
Cc1ccc(S(=O)(=O)N2C[C@H]3[C@H]4C(=O)N(C5CCCCC5)C(=O)[C@H]4CC(=O)[C@H]3[C@@H]2c2cccc3ccccc23)cc1 | -2
CCS(=O)(=O)Nc1cc2c3c(c1)CCC(=O)N3CCC2 | -9
COc1ccc(S(=O)(=O)N2CCOCC2)cc1C(=O)NCC(c1ccccc1)c1ccccc1 | -10

# Additional structures follow.
Molecule,TRPML1 inh,PINK1 modulator,D2 potentiator,Six1-Eya2 inh,TRPML1 agonist,D2 agonist
CC(=O)c1ccc(NC(=O)NC2CC(=O)N(c3ccc4c(c3)OCCO4)C2)cc1 (stereo unspecified),11,19%,-4,7,0.0,-0.5
COCCn1c(C)cc(C(=O)CSc2cc(C)c3ccc(OC)cc3n2)c1C,12,u,-10,-25,1.6,-2.9
COc1ccc(N2CCN(S(=O)(=O)c3ccc(-c4coc(C)n4)cc3)CC2)cc1,-25,3.5%,x,x,1.0,x
CSc1nc(C)cc(SCC(=O)N/N=C/c2ccccc2)n1,2,5.8%,-6,u,0.0,-1.5
O=[N+]([O-])c1ccc(N=Nc2ncc[nH]2)cc1,19,10%,-34,1,1.9,-0.8
COc1ccc(CNC(=O)Nc2ccc3c(c2)c(=O)n(C)n3Cc2cccc(C(F)(F)F)c2)cc1,x,6.0%,4,1,-1.0,11
CC1(C(=O)NS(=O)(=O)c2cccc(F)c2)CCN1C(=O)Cc1cccc2ccccc12 (stereo unspecified),x,0.4%,-6,6,-0.5,4.1
CC(C)C[C@@H]1Cc2[nH][nH]c(=O)c2[C@H](c2ccc(Cl)cc2)O1,x,1.7%,x,-5,-1.3,x
Cc1ccc(-n2nc3c(=O)n(CC(=O)NC(C)CCc4ccccc4)nc(C)c3c2C)cc1 (stereo unspecified),-8,6.9%,4,13,-0.6,0.9
Cc1cc(N2CCCC2)ccc1NC(=O)CN1C(=O)NC2(CCCCC2)C1=O,-3,5.0%,-4,-14,0.2,-3.0
CCOc1ccc(-c2cc3c(=O)n(CC(=O)NCc4ccc(Cl)cc4)ccn3n2)cc1,6,0.8%,x,x,0.6,x
COc1ccc(CN2CCN(Cc3ccc4cc(F)ccc4n3)CC2CCO)c(C)c1C (stereo unspecified),-15,1.5%,-6,3,0.3,3.3
Cc1cccc(Nc2nnc(SCC(=O)NC3CCCc4ccccc43)s2)c1 (stereo unspecified),-6,2.4%,-11,-18,2.3,-5.2
O=C(c1ccc(Br)o1)N1CCN=C1SCc1cccc(F)c1,18,12%,0,3,0.9,0.3
C=CCNC(=O)c1ccc(Sc2ccccc2)c([N+](=O)[O-])c1,33,-1.3%,-8,u,0.5,-4.0
CCOC(=O)c1ccc(S(=O)(=O)N2CCN(S(=O)(=O)CC)CC2)cc1,-8,0.8%,-20,2,-0.3,-1.6
COc1ccc(C(=O)N2CCN=C2SC)cc1OC,-11,-0.8%,-9,0,0.5,0.6
Cc1ccc(S(=O)(=O)N[C@H](C(=O)OCC(=O)N2N=C(c3ccc(Cl)cc3)CC2c2ccco2)C(C)C)cc1 (stereo partly specified),5,0.2%,-6,-9,1.4,-5.2
Cc1ccn2c(c1)nc(=O)c1cc(S(=O)(=O)N3CCCCC3)c(Cl)cc12,6,1.6%,x,x,1.3,x
Cc1ccc(C(=O)CNc2ccccc2C)cc1,16,-0.8%,-56,5,2.1,-15
COC(=O)c1sccc1NC(=S)N1CCN(c2ccc(F)cc2)CC1,-7,u,-19,-24,2.5,-0.8
CN(C)/C(=N\S(=O)(=O)c1ccccc1)c1ccc(Cl)cc1,x,1.1%,-10,-15,x,-6.0
CCOc1ccc(NC(=O)CS(=O)(=O)Cc2nc(-c3ccc(C)cc3)oc2C)cc1,33,4.3%,x,x,0.2,x
CCC(C)NC(=O)C1CCCN(C(=O)Nc2ccc(F)cc2)C1 (stereo unspecified),1,5.5%[38.3 µM],-3,1,-0.9,-0.1
Cc1cc(C(=O)CSc2nnc(-c3cccc(F)c3)n2N)c(C)n1Cc1ccc2c(c1)OCO2,10,-1.5%,-3,-25,0.1,-1.7
O=S1(=O)C=C(Sc2nnc(-c3ccccc3)o2)c2ccccc21,-5,1.3%[38.3 µM],-26,-18,2.5,-0.6
CN(Cc1ccccc1)C(=O)Cn1cccc1C(=O)c1ccccc1,1,1.0%,-6,2,-0.9,-1.6
N=c1c(C(=O)NC2CCCC2)cc2c(=O)n3ccccc3nc2n1CCCN1CCOCC1,-5,2.4%,-1,0,-0.8,-1.6
CCc1ccc(S(=O)(=O)N2CCN(c3ncccn3)CC2)cc1,-6,-1.4%,-2,5,0.7,-0.8
O=C(CCCc1nc2ccccc2s1)NNC(=O)CCN1CCN(Cc2ccccc2)CC1,18,1.2%,-15,1,0.9,-2.1
COCCCNC(=O)C[C@H]1C[C@H](C(=O)N2CCOCC2)[C@@]2(CCC3CCCC3)c3[nH]c4ccc(Cl)cc4c3CCN2C1=O,20,0.8%,-6,0,-0.7,0.8
C#CCSc1nnc(-c2sc(-c3ccccc3)nc2C)n1C,3,3.8%[38.3 µM],-7,2,-0.5,-0.1
CCOc1ccc(-c2cc3nc(C4CCN(C(=O)OC(C)(C)C)CC4)c(C(=O)Nc4cc(OC)ccc4OC)cn3n2)cc1,16,0.0%,x,x,0.9,x
Cc1cc(C)n2cc(CSc3nnnn3-c3ccc(Cl)cc3)nc2n1,1,-1.8%,-19,0,0.3,-1.4
COc1ccc(NC(=O)CSc2nnc(-c3ccncc3)n2-c2ccccc2)cc1,27,4.2%,x,x,-0.7,x
COc1ccc(Cl)cc1Nc1ncnc2c1c(-c1ccccc1)cn2-c1ccccc1,0,2.7%,x,x,0.0,x
CCCCC[C@@H](C)N1C[C@@H](COCc2ccccc2)Oc2cc(N3CC[C@@H](N(C)C)C3)ccc2S1(=O)=O,x,0.0%,x,-17,0.8,x
CCOC(=O)Cn1ccc(NC(=O)COc2ccc(F)cc2F)n1,1,-0.1%,15,1,-0.5,-5.4
COc1ccc(/C=C(/C#N)c2nc(-c3ccc(-c4ccccc4)cc3)cs2)cc1,-9,0.6%,x,x,-0.6,x
Cc1oc2c(C)c3oc(=O)c(CCC(=O)NCCCn4ccnc4)c(C)c3cc2c1C,x,-0.6%,-38,-13,x,-3.8
CCCCNC(=O)CSc1nc(CCC)nc2ccccc12,-9,-0.9%,-5,11,5.3,-1.6
CC(C)CC1OC(C(C)C)Cc2[nH]c(=S)[nH]c(=O)c21 (stereo unspecified),x,0.0%,x,3,-1.0,x
COc1ccc(-c2coc3c(C(=O)Nc4ccc(OC)nc4)cccc23)c(C)c1,x,1.9%,-6,-2,0.1,2.4
Cc1cccc2sc(NC(=O)C3CSC4(C)CCC(=O)N34)nc12 (stereo unspecified),17,-0.6%,-1,0,0.3,1.6
COc1ccc(/C=C/CN2CCN(Cc3cccc(OC)c3)C(CCO)C2)cc1 (stereo unspecified),46,-1.4%,-18,-4,0.1,-4.9
CN(CC(=O)Nc1ccccc1Br)C(=O)c1cccc(S(=O)(=O)N2CCc3ccccc32)c1,11,-0.3%,5,-1,3.1,-0.8
Cc1ccc(COC(=O)CN2C(=O)NC3(CCCCC3C)C2=O)cc1 (stereo unspecified),-7,2.0%,0,-5,-0.4,-1.1
CC1Cc2ccccc2N1C(=O)c1nn(C)cc1Br (stereo unspecified),23,7.9%,-18,-4,-0.8,-2.7
O=C(Nc1ccc(Cl)cc1)N1CCN(c2ncccn2)CC1,4,2.0%,-10,2,-0.3,-2.6
Cc1ccc(Oc2ccc(C(=O)NCc3ccncc3)cc2)cc1,6,-1.0%,-14,-2,0.1,1.2

# Next part
Molecule,TRPML1 inh,PINK1 modulator,D2 potentiator,Six1-Eya2 inh,TRPML1 agonist,D2 agonist
C/C(=N/NC(=O)CNC(=O)C(c1ccccc1)c1ccccc1)c1ccco1,23,0.5%,-1,6,1.1,-2.8
CC(C)CN(CCNC(=O)c1cn(C)c2ccc(S(=O)(=O)N3CCCC3)cc2c1=O)CC(C)C,5&21,-0.8%&-0.2%,-2,7,2.9&-0.6,-3.6
CN(C(=O)CN1C(=O)S/C(=C\c2ccc(F)cc2)C1=O)C1CCS(=O)(=O)C1 (stereo unspecified),-17,-1.0%,-7,2,0.0,-3.9
CN(CCc1ccccc1)C(=O)c1[nH]c(C(F)(F)F)nc1-c1ccccc1,x,-0.1%,-1,-15,-0.1,-0.3
Nc1c(C(=O)O)sc2nc(-c3ccccc3)cc(-c3ccc(Cl)cc3)c12,-7,-0.5%,-14,-14,1.1,-1.5
O=C(CN1CCOCC1)NC1CC2CCC1C2 (stereo unspecified),-1,2.2%,-6,24,0.7,-4.3
COCCCNC(=O)CCc1nnc(Cc2ccc(-c3ccccc3)cc2)o1,12,1.3%,-1,0,0.3,5.1
C/C(=N\NC(=O)Cc1csc(N2CCOCC2)n1)c1ccccc1,11,x,5,-3,-0.4,3.2
CC(C)CCN1CCN(Cc2coc3ccccc3c2=O)CC1CCO (stereo unspecified),-2,0.9%,-21,13,-0.4,-0.3
COc1ccc(C(=O)Oc2coc(CSc3nnc(NC(=O)c4cccs4)s3)cc2=O)cc1,-14,5.5%,-12,-10,-0.1,1.0
